Screening results deposited in PubChem BioAssay by National Center for Advancing Translational Sciences (NCATS).
gsp antagonist = gsp mutant antagonism | gsp-mutant cells, cAMP HTRF, 30 min; control for the full effect not named in the record | Potency, µM (highest dose often 76.9 µM), for inactives: at the highest dose activity change, negative = inhibition, usual class: inhibitors | 340,000 compounds, 0.4% hits | AID 624288; active = falling curve of any shape with a large fitted effect; inconclusive = falling curve, mostly with a smaller effect; inactive = flat or rising curve; cell line not stated here;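 also: intracellular cAMP measured with PDE inhibitor Ro 20-1724 present during compound exposure; potency is read from the fitted curve at half-maximal effect; % is scaled to controls: 0 for no effect and ±100 for the full control effect; nearly all actives have a fitted effect of over 65% in size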
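Cells, 2000/well, grown 16–24 h in DMEM 10% FBS with 0.5 mg/ml G418, then compounds plus […] (300 uM addition stock), 30 min at 37C. cAMP read by HTRF (cAMP-d2 and anti-cAMP antibody-K in lysis buffer) after 30 min RT.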
PINK1 expr mod = modulators of PINK1 expression; PINK1 immunofluorescence, high-content cytometry, 24 h; Potency, µM (top dose mostly 76.6 µM), for inactives: top-dose activation (PINK1 increase), actives largely listed as activators; 410,000 compounds, 0.2% hits; AID 624263; active = well fitted activation curve with a large enough effect; inconclusive = small, poorly fitted or top-dose-only effect; inactive = flat fitted curve, though single readings scatter; cell line not stated here;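 also: potency is read from the fitted curve at half-maximal effect; % of control where 0% means no effect; nearly all actives have a fitted effect of over 65% in size; a mitochondrial uncoupler was the plate control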
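Measures PINK1 amount and localization on or inside mitochondria by immunofluorescence. Stable cells get compounds at 5 concentrations for 24 hours before fixation and staining; CCCP controls included.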
gsp agonist = gsp mutant agonism; 340,000 compounds, 0.13% hits; gsp mutant cells, cAMP HTRF, 30 min; control for the full effect not named in the record; Potency, µM (titrated, usually from 76.9 µM), for inactives: at the top dose activation (cAMP increase), usual class: activators; active = well fitted activation curve with a large enough effect; inconclusive = small, poorly fitted or top-dose-only effect, or another doubt; inactive = no such curve, though single readings can be large or run the other way; cell line not stated here;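 also: phosphodiesterase inhibitor Ro 20-1724 added with compounds to block cAMP breakdown; potency is read from the fitted curve at half-maximal effect; nearly all actives have a fitted effect of over 60% in size; about a fifth of the inactives were tested at one dose only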
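Cells in DMEM/10% FBS with G418 were pretreated with compounds in DMSO plus […] (300 uM stock) for 30 min at 37C. cAMP was measured by HTRF (cAMP-d2 plus anti-cAMP antibody-K) after 30 min at room temperature.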
ClpP mod = qHTS Assay for Activators of ClpP. purified B. subtilis ClpP, FRET peptide cleavage, 20 min. Potency, µM (titrated, usually from 57.5 µM), for inactives: top-dose activity change, negative = active. 340,000 compounds, 1.9% hits; active = well fitted falling curve with a large enough effect; inconclusive = small, poorly fitted or top-dose-only effect; inactive = no such curve, though single readings can be large or run the other way; also: potency is read from the fitted curve at half-maximal effect; the source files actives as falling curves though it sought activators and does not explain the sign; nearly all actives have a fitted effect of over 65% in size; many hits overshoot -100%
Target sequence (P80244 whole entry, looked up): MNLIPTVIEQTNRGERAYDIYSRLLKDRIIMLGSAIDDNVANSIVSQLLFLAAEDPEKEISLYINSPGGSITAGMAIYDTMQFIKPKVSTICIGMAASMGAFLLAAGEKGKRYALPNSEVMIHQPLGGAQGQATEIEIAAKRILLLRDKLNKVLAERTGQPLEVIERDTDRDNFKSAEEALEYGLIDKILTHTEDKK
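Purified B. subtilis ClpP, 10 microg/mL final in Tris/HCl pH8 with KCl, BSA, glycerol and Tween-20, cleaved an Abz/nitrotyrosine-quenched decapeptide. Fluorescence (ex 320, em 430) was read at 0 and 20 min at room temperature. Delta was normalized to 5.8 microM ADEP and DMSO/no-enzyme controls.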
Sfp inh = Sfp phosphopantetheinyl transferase inhibition; Q9F4F7; 310,000 compounds, 3.5% hits; Potency, µM, inactives show max response, negative = inhibition, usual class: inhibitors; Biochemical Sfp PPTase activity, qHTS; active = well fitted inhibition curve with a large enough effect; inconclusive = small, poorly fitted or top-dose-only effect, or another doubt; inactive = no such curve, though single readings can be large or run the other way;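 also: the enzyme is Sfp with the accession as filed and its product quenches rhodamine fluorescence; potency is read from the fitted curve at half-maximal effect; 0% = enzyme reaction without inhibitor and -100% = no enzyme wells; top concentration of the series not given in the record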
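Fluorescence-quenching assay: 15 nM Sfp-PPTase preincubated 15 min at room temperature with compound, then 5 uM rhodamine-CoA and 12.5 uM BHQ-2-labelled YbbR peptide added. Fluorescence (ex 525/em 598 nm) read at start and after 30 min; difference gives rate.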
Menin MLL FP FL = displaces fluorescein MLL peptide from human menin | FP activity change, % at 61.4 µM | Fluorescence polarization, fluorescein-MLL peptide displacement from menin | 290,000 tested, under 10 active; inconclusive = falling polarisation curve, or a change in total fluorescence; inactive = total fluorescence flat and polarisation flat or rising; no compound was filed as active; the % refers to the polarisation; negative = inhibition;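 also: % of control where 0% means no effect; inhibitors lower the polarisation; unlabelled MLL peptide was the positive control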
D2 agonist = agonists of human D2 dopamine receptor (beta-arrestin). P14416. activation, % (test concentration not listed). 360,000 compounds, 0.084% hits. DiscoveRx PathHunter D2 beta-arrestin, luminescence, 90 min; 100% = 57 uM dopamine signal; in the data active = activation above about 40%; inconclusive = about 15% to 40%; inactive = below about 15%; also: compound concentration not given in the record; the text of the record calls up to 30% inactive
Target sequence (P14416 whole entry, looked up): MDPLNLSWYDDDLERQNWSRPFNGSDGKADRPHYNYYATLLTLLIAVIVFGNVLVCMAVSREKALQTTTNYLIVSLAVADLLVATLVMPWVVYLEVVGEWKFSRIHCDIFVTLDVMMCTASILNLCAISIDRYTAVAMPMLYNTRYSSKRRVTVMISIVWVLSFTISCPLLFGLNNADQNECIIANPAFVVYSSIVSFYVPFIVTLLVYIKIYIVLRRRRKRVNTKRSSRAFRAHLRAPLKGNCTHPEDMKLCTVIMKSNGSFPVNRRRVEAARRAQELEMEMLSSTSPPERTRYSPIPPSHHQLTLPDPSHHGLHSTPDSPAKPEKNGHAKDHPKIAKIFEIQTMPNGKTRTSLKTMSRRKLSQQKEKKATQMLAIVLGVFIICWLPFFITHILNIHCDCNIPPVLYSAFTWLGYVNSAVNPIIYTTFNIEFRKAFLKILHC
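Agonist mode: compounds alone added to overnight-plated D2 PathHunter cells for 90 min at 37 C, with 57 uM final dopamine (EC100) defining full response. Beta-arrestin recruitment detected by chemiluminescent reagent, read after 1 h at ambient temperature.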
The depositor's hits bear a star; ? = inconclusive; . = not tested or not shown; [ ] = dose if it differs, or a comment. Random draw from the library; overall some 5.1% were active at least once.

SMILES | gsp antagonist | PINK1 expr mod | gsp agonist | ClpP mod | Sfp inh | Menin MLL FP FL | D2 agonist
O=C(O)CSC1CC(=O)N(c2ccc(Cl)c(Cl)c2)C1=O (stereo unspecified) | 7% | -1.1% | 4% | 0.2% | 8% | 4.0 | -3.5
O=C(CNS(=O)(=O)c1ccc(Cl)cc1)N/N=C/c1ccco1 | -11% | 1.2% | 1%[15.4 µM] | . | 5% | 4.3 | 0.0
Cc1cccnc1NC(=O)COc1ccc2c(c1)CCC2 | 3% | -0.4% | -4%[15.4 µM] | . | . | . | 0.6
O=C(CCN1C(=O)[C@H]2CC=CC[C@H]2C1=O)NCc1nc(-c2ccc(Cl)cc2)no1 | -5% | 0.5% | 25% | -1.2% | 9% | 5.1 | 0.3
CNc1cc(N2CCN(S(=O)(=O)N(C)C)CC2)ccc1[N+](=O)[O-] | -1% | 3.1% | -12%[15.4 µM] | . | 10% | 5.9 | -5.9
CC(C)(CNC(=O)Cc1ccc(Cl)cc1Cl)N1CCOCC1 | 7% | -1.2% | ? | -3.3% | 3% | -0.4 | 4.4
Cc1nn(Cc2cccc(Oc3ccccc3)c2)c(C)c1NC(=O)NC12CC3CC(CC(C3)C1)C2 | -5% | ? | 23%[15.4 µM] | 0.9% | 16% | 0.4 | 0.4
CCOC(=O)c1c(-c2ccc(-c3ccccc3)cc2)csc1NC(=O)CNCCN(C)C | 18% | -1.4% | -6%[15.4 µM] | . | 40µM* | -0.2 | -0.6
COc1ccc(-c2cc(-c3ccc(Cl)cc3)c(C#N)c(SCC(=O)O)n2)cc1 | ? | 2.4% | 3% | 4.2% | -24% | -2.4 | -3.3
CCN(C(=O)c1cc2ccccc2oc1=O)c1ccccc1 | 7% | 1.2% | 24% | -1.4% | 12% | 1.8 | -0.1
Cc1nc2ccccc2c2oc(C(=O)N3CCc4ccccc4C3)cc12 | -20% | -2.6% | -65%[inhibitor] | -15% | -7% | -0.1 | 2.2
O=C(CCc1cn2ccccc2n1)NC1CCCc2c1cnn2-c1ccccc1F (stereo unspecified) | 3% | 0.7% | 28% | 3.7% | 15% | . | 0.7
Cc1ccc(F)c(S(=O)(=O)NC(=O)C2(C)CCN2C(=O)Cc2ccsc2)c1 (stereo unspecified) | . | -0.5% | . | 0.7% | . | . | 5.8
CC1(c2ccccc2)NC(=O)N(CC(=O)Nc2cc(S(=O)(=O)N3CCOCC3)ccc2Cl)C1=O (stereo unspecified) | 3% | -0.3% | 15% | . | 15% | -3.4 | 2.9
Cc1nc2ccccc2cc1C(=O)N(C)Cc1ccccc1 | 1% | 2.1% | -3%[15.4 µM] | . | 5% | -1.7 | -0.6
O=C1CN(S(=O)(=O)c2cc(Br)ccc2Br)CCN1 | 7% | 1.9% | 22% | 1.7% | . | . | 1.9
O=C(Nc1ccc(F)c(Cl)c1)C1CCCCC1 | 6% | 5.6% | -24% | 0.7% | . | . | -5.4
O=C(Nc1ccccc1)N1N=CCC1c1ccccc1 (stereo unspecified) | 6% | -0.8% | 19%[15.4 µM] | . | 6% | -3.9 | -0.7
CCOC(=O)C1CCCN(C(=O)c2ccc3nc(-c4cccc(OC)c4)oc3c2)C1 (stereo unspecified) | 1% | 4.9% | 17% | -20% | -4% | 0.6 | 0.6
O=S(=O)(Nc1nc2c(s1)CCCC2)c1ccc(F)cc1 | -13% | 6.1%[38.3 µM] | 28% | -0.2% | 17% | 0.5 | -1.6
Cc1cc(C)n(C(C)CC(=O)N2CCc3ccccc32)n1 (stereo unspecified) | -3% | -0.1% | 4% | -1.4% | 3% | -2.2 | -1.7
CCc1ccccc1N(CC(=O)NC1CCCCC1)C(=O)CCC(=O)Nc1ccccn1 | -6% | -1.9% | -7% | . | -1% | -0.6 | 0.2
CC(/C=N/NC(=O)c1cc(-c2ccc(C)o2)[nH]n1)=C\c1ccccc1 | 2% | 2.8% | 6% | -9.7% | -17% | 3.5 | -7.1
CCCc1nc2c3ccccc3ccn2c1CC1CCCCC1 | . | ? | . | 5.4% | . | . | -7.1
O=C(O)c1ccc(-n2c(=O)c3ccccc3c3ccccc3c2=O)cc1 | -33% | -2.8% | ? | . | 7.9µM* | 5.4 | 0.6
CC(C)C(=O)NC(=S)Nc1ccc(S(=O)(=O)N(C)C)cc1 | 5% | -2.5% | 12% | 2.5% | -11% | 16 | 0.5
CCCn1c(N2CCN(CC(=O)Nc3ccc4c(c3)OCCO4)CC2)nc2ccccc21 | -9% | -0.5% | 18% | 3.4% | -4% | -0.2 | 3.3
CCN(CC(=O)Nc1ccc(OC)cc1)C(=O)c1ccccc1Sc1ccccc1C#N | -15% | 2.1% | 18%[15.4 µM] | . | . | . | 2.6
COc1cccc(/C=N/NC(=O)c2cnn(-c3ccccc3)c2N)c1 | -22% | 8.0% | -8% | -1.1% | 9% | 0.6 | -0.6
Cc1ccc(C(=O)Nc2cccc(-c3ccc(N4CCOCC4)nn3)c2)cc1 | -1% | 5.7% | -5%[15.4 µM] | . | . | . | -1.3
Cc1ccc(C(=O)NCC2CCCO2)cc1N1CCCC1=O (stereo unspecified) | 13% | -0.7% | -7% | 0.5% | -7% | 0.7 | -1.9
CCCN(CC1CC1)C(=S)Nc1ccccc1F | 4% | 0.8% | 2% | . | ? | 3.3 | -5.2
CC1OC(Nc2ccc(OC(F)(F)F)cc2)C(O)C(O)C1O (stereo unspecified) | 12% | -1.3% | 28% | 0.6% | 11% | 0.4 | 1.2
S=c1[nH]c2cnccc2n1Cc1ccccc1 | -34% | 4.1% | -4%[15.4 µM] | 2.1% | ? | -4.5 | 1.1
COc1ccccc1CN(C)CC(=O)Nc1ccc(Cl)cc1C(F)(F)F | -6% | 28% | -18% | -2.2% | ? | 6.0 | -1.4
Cc1cc(Cl)ccc1-c1nc(NCc2ccccc2)nc2ccsc12 | . | 4.8% | . | 5.0% | . | . | -5.4
CCOc1ccc(C(C)=O)cc1CSc1nc(C)cc(C)n1 | -5% | 1.0% | 13% | -0.2% | 13% | 1.9 | -0.2
CN1CCN(S(=O)(=O)c2ccc(Sc3nnc(-c4cccs4)n3-c3ccccc3)nc2)CC1 | -8% | -0.5% | -12% | 0.2% | 16% | 5.9 | -1.3
CN=C1N[C@H](c2ccccc2)N(c2ccccc2)S1 | . | -0.2% | . | . | 112µM* | 7.4 | .
CC(=O)Nc1ccc(NC(=O)CCCNC(=O)c2ccc(Cl)cc2)cc1 | 5% | -0.9% | -6% | . | 11% | -4.5 | -1.0
Cc1ccc(Cn2nnc3c(=O)[nH]c(C4CCCN(C(=O)Nc5ccc(F)cc5F)C4)nc32)cc1 (stereo unspecified) | -12% | 6.0%[38.3 µM] | -13% | -0.6% | 6% | 4.4 | 1.0
Cc1ccc(CNC(=O)c2ccc(NS(=O)(=O)c3cccs3)cc2)cc1 | 7% | -0.2% | 8% | -0.5% | 18% | 0.0 | 0.1
O=C1CSC(c2ccccn2)N1c1ccc(Cl)c(Cl)c1 (stereo unspecified) | -14% | . | 16% | 0.7% | -20% | 3.2 | 0.7
Brc1ccc(OCc2ccccc2)c(CNCc2ccncc2)c1 | ? | -1.3%[38.3 µM] | -28% | -1.1% | 79µM* | 2.4 | 0.3
CCOC(=O)c1c(NC(=O)CSc2n[nH]c(N)n2)sc(CC)c1C | ? | -0.2%[38.3 µM] | 14% | -12% | -6% | 7.3 | 2.8
Cn1c(SCC(=O)Nc2nc3c(s2)CCCC3)nnc1-c1ccccc1 | -28% | 4.6%[38.3 µM] | -7% | 0.5% | 13% | 4.7 | -2.4
O=C(CC[C@H]1O[C@@H](n2ccc(=O)[nH]c2=O)[C@H](O)[C@@H]1O)NCCc1c[nH]c2ccccc12 | . | -0.4% | . | 1.2% | . | . | -1.3
CCc1ccc(S(=O)(=O)NCCOc2cccc3cccnc23)cc1 | -4% | -0.4% | 6% | -2.9% | -13% | -4.8 | -3.0

Reprinted from the listing (2 entries):
SMILES | gsp antagonist | PINK1 expr mod | gsp agonist | ClpP mod | Sfp inh | Menin MLL FP FL | D2 agonist
O=C(CC[C@H]1O[C@@H](n2ccc(=O)[nH]c2=O)[C@H](O)[C@@H]1O)NCCc1c[nH]c2ccccc12 | . | -0.4% | . | 1.2% | . | . | -1.3
CCc1ccc(S(=O)(=O)NCCOc2cccc3cccnc23)cc1 | -4% | -0.4% | 6% | -2.9% | -13% | -4.8 | -3.0

(next part)
SMILES | gsp antagonist | PINK1 expr mod | gsp agonist | ClpP mod | Sfp inh | Menin MLL FP FL | D2 agonist
COc1ccccc1OCc1cc(C(=O)N2CCN(C)C(c3ccccc3)C2)no1 (stereo unspecified) | -11% | 1.2% | -8%[15.4 µM] | -1.7% | 12% | . | -3.6
C/C=C/C(=O)OCC(=O)Nc1ccccc1Br | -4% | 1.7% | -2%[15.4 µM] | . | 9% | 0.7 | -19
COc1cccc(C(C)(O)c2nc(-c3cccc(C(C)C)c3)cs2)c1 (stereo unspecified) | . | -1.6% | . | 1.0% | . | . | 3.4
Cc1ccc(S(=O)(=O)NNC(=O)C(O)(c2ccccc2C)c2ccccc2C)cc1 | 2% | 2.5% | -49%[inhibitor] | 0.3% | 12% | 2.5 | -1.8
Cc1cc(=O)oc2c3c(cc(OCC(=O)N4CCC[C@H]4C(=O)O)c12)OC(C)(C)CC3 | 6% | 1.6% | . | 4.7% | 11% | -3.0 | -3.1
O=C(NC1CCCC1)C(c1ccccc1)N(Cc1cccnc1)C(=O)Cc1cccs1 (stereo unspecified) | -13% | -0.3% | 9%[15.4 µM] | -0.5% | -7% | -1.8 | -7.0
CC(C)N1CC(C(=O)Nc2cccc([N+](=O)[O-])c2)CC1=O (stereo unspecified) | -2% | 2.9% | ? | 0.2% | 19% | 0.4 | 1.1
CC(C)N(C(=O)[C@H]1CC(CC(=O)NCCC2=CCCCC2)C(=O)N2CCc3c([nH]c4ccccc34)[C@]12C)C(C)C (stereo partly specified) | -13% | 25% | . | 0.0% | . | . | 0.2
